Screening results: PubChem BioAssay, National Center for Advancing Translational Sciences (NCATS)
gsp ag – gsp mutant agonism; gsp mutant cells, cAMP HTRF, 30 min; control for the full effect not named in the record; Potency, µM (series often up to 76.9 µM), without a hit: at the highest dose activation (cAMP increase), usual class: activators; actives 0.13% (n = 340,000); AID 624287; active = well fitted activation curve with a large enough effect; inconclusive = small, poorly fitted or top-dose-only effect, or another doubt; inactive = no such curve, though single readings can be large or run the other way; cell line not stated here;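 note: phosphodiesterase inhibitor Ro 20-1724 added with compounds to block cAMP breakdown; potency is the fitted concentration of half-maximal effect; nearly all actives have a fitted effect of over 60% in size; about a fifth of the inactives were tested at one dose only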
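Cells stably selected in G418 were plated at 2000/well, grown 16-24 hr, then given compounds in DMSO with the PDE inhibitor […] (300 uM solution added) for 30 min at 37C; cAMP was read by HTRF.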
gsp antag – antagonists of gsp mutant (McCune-Albright syndrome); Potency, µM (titrated, usually from 76.9 µM), inactives show at the top dose activity change, negative = inhibition, usual class: inhibitors; actives 0.4% (n = 340,000); gsp-mutant cells, cAMP HTRF, 30 min; control for the full effect not named in the record; active = falling curve of any shape with a large fitted effect; inconclusive = falling curve, mostly with a smaller effect; inactive = flat or rising curve; cell line not stated here;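 note: intracellular cAMP measured with PDE inhibitor Ro 20-1724 present during compound exposure; potency is the fitted concentration of half-maximal effect; % is set by controls: 0 for no effect and ±100 for the full control effect; nearly all actives have a fitted effect of over 65% in size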
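Cells, 2000/well, grown 16–24 h in DMEM 10% FBS with 0.5 mg/ml G418, then compounds plus […] (300 uM addition stock), 30 min at 37C. cAMP read by HTRF (cAMP-d2 and anti-cAMP antibody-K in lysis buffer) after 30 min RT.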
D2 potentiator – human D2 receptor positive allosteric modulation. potentiation, % (concentration not given with the values). actives 0.23% (n = 360,000). DiscoveRx D2 beta-arrestin cells, luminescence, 90 min; 100% = 57 uM dopamine signal. P14416; active = potentiation of 50% or more; inconclusive = 30% to 50%; inactive = 30% or less;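 note: compound concentration not given in the record; tested on top of an EC20 dose of dopamine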
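D2 cells co-treated with compound plus 50 nM dopamine (EC20) for 90 min at 37 deg C to detect potentiation. Beta-arrestin recruitment was read as enzyme-fragment luminescence after 1 h at ambient temperature. Full response was set by 57 uM dopamine.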
Sfp inh – Sfp phosphopantetheinyl transferase inhibition; Q9F4F7; Biochemical Sfp PPTase activity, qHTS; Potency, µM, for inactives: max response, negative = inhibition, most hits filed as inhibitors; actives 3.5% (n = 310,000); active = well fitted inhibition curve with a large enough effect; inconclusive = small, poorly fitted or top-dose-only effect, or another doubt; inactive = no such curve, though single readings can be large or run the other way;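 note: the enzyme is Sfp with the accession as filed and its product quenches rhodamine fluorescence; potency is the fitted concentration of half-maximal effect; 0% = enzyme reaction without inhibitor and -100% = no enzyme wells; top concentration of the series not given in the record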
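After 15 min at room temperature with compound, 15 nM Sfp received 5 uM rhodamine-CoA plus 12.5 uM BHQ-2-ybbR (50 mM Hepes pH 7.6, 10 mM MgCl2). Rate came from the fluorescence difference over 30 min, ex 525/em 598 nm.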
ClpP mod – qHTS Assay for Activators of ClpP; ATP-dependent Clp protease proteolytic subunit (Bacillus subtilis (strain 168)), P80244; actives 1.9% (n = 340,000); Potency, µM (doses to about 57.5 µM), inactives show at the top dose activity change, negative = active; purified B. subtilis ClpP, FRET peptide cleavage, 20 min; active = well fitted falling curve with a large enough effect; inconclusive = small, poorly fitted or top-dose-only effect; inactive = no such curve, though single readings can be large or run the other way; note: potency is the fitted concentration of half-maximal effect; the source files actives as falling curves though it sought activators and does not explain the sign; nearly all actives have a fitted effect of over 65% in size; many hits overshoot -100%
Target sequence (P80244 whole entry, looked up): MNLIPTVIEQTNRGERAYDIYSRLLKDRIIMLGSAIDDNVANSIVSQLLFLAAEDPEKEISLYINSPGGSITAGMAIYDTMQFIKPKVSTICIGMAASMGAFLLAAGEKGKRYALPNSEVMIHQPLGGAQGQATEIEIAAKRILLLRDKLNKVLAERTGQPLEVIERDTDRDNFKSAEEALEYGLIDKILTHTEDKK
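ClpP 10 microg/mL final, pH 8 Tris/KCl buffer with BSA, glycerol, Tween-20; compound pinned in; FRET-FV substrate; RT 20 min; Ex320/Em430; ΔFRET vs ADEP 5.8 microM, DMSO, no enzyme.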
Menin-MLL FL inh – displaces fluorescein MLL peptide from human menin; Fluorescence polarization, fluorescein-MLL peptide displacement from menin; FP activity change, % at 61.4 µM; 290,000 tested, under 10 active; AID 1766; inconclusive = falling polarisation curve, or a change in total fluorescence; inactive = total fluorescence flat and polarisation flat or rising; no compound was filed as active; the % refers to the polarisation; negative = inhibition;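 note: % of control where 0% means no effect; inhibitors lower the polarisation; unlabelled MLL peptide was the positive control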
TRPV1 PAM – enhances activation of the human vanilloid receptor TRPV1 | TRPV1-expressing cells, Fluo-8 calcium influx, capsaicin EC20 potentiation; host cell line not named in the record; control for the full effect not named in the record | Q8NER1 | AID 540277 | potentiation, % at 8.33 µM | actives 0.02% (n = 320,000); active means potentiation above 80%; inconclusive means 30% to 80%; inactive means below 30%; note: 0% is about no effect
Target sequence (Q8NER1 whole entry, looked up): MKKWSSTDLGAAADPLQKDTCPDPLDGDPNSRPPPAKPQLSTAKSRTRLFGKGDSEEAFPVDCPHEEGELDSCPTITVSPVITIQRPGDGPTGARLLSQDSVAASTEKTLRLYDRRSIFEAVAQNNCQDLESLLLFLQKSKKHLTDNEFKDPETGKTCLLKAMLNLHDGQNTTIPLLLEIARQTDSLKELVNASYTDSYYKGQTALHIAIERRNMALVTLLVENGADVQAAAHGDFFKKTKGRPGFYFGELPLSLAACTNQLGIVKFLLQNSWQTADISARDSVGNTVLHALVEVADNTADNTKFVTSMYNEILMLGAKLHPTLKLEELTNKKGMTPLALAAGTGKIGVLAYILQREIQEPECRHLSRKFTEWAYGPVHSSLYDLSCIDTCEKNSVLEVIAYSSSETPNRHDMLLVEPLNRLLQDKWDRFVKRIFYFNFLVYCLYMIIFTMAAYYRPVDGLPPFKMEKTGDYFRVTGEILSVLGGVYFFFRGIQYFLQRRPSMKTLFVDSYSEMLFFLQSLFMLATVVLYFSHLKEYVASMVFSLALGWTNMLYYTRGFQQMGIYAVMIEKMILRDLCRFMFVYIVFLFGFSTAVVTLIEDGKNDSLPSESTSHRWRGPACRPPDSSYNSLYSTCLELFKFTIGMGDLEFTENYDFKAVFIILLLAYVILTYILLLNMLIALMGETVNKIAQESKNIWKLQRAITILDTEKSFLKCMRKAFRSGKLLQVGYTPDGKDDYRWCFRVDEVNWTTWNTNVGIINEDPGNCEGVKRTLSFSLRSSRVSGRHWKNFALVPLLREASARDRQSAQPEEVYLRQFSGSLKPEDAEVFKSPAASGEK
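TRPV1-expressing cells were cultured overnight at 35.5C and loaded with Fluo-8 calcium dye for 40 to 90 min at room temperature. After a 10 s baseline, compound was added and calcium influx was read kinetically for 3 min (ex 480/em 520 nm).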
The depositor's hits bear a star; [ ] = dose if it differs, or a comment.

What do the screens show for `CCOC(=O)C(C(=O)OCC)C(C[N+](=O)[O-])c1ccccc1` (stereo not given)?
gsp ag: -29%; gsp antag: 6%; D2 potentiator: -2; Sfp inh: 22%; ClpP mod: -0.1%; Menin-MLL FL inh: -3.1; TRPV1 PAM: 0

Results for CCCCOc1ccc(N2CC(C(=O)NCCc3ccc(OC)c(OC)c3)CC2=O)cc1 (stereo not given) ?
gsp ag: -12%[15.4 µM]; gsp antag: -14%; D2 potentiator: -10; Sfp inh: 11%; Menin-MLL FL inh: -6.1; TRPV1 PAM: -1

How did CCc1nn(CC(=O)NCCN2CCOCC2)c(=O)c2cc3c(OC)cccc3n12 do in these assays?
gsp ag: inconclusive; gsp antag: -26%; D2 potentiator: -6; Sfp inh: 6%; ClpP mod: 4.1%; Menin-MLL FL inh: -5.1; TRPV1 PAM: -1

Results for COCCn1c(SCC(=O)N2CCCc3ccccc32)nc2cccnc21 ?
gsp ag: -4%; gsp antag: -1%; D2 potentiator: 25; Sfp inh: 16%; ClpP mod: -1.0%; Menin-MLL FL inh: 0.8; TRPV1 PAM: 1

Results for COc1ccccc1/C=C/CN1CCC(Oc2ccc(C(=O)N3CCCCC3)cc2)CC1 ?
gsp ag: -43%; gsp antag: 7%; D2 potentiator: -34; Sfp inh: 17%; ClpP mod: -2.9%; Menin-MLL FL inh: 0.2; TRPV1 PAM: 1

Results for O=C(O)Cc1ccc(C(=O)CSc2ccccc2)s1 ?
gsp ag: -4%; gsp antag: -3%; D2 potentiator: -3; Sfp inh: -62%; ClpP mod: 0.4%; Menin-MLL FL inh: 12; TRPV1 PAM: 15

How did CC(=O)Nc1ccc(S(=O)(=O)Nc2cccc(-n3cnnn3)c2)cc1 do in these assays?
gsp ag: 7.9µM*; gsp antag: 8%; D2 potentiator: -6; Sfp inh: 17%; TRPV1 PAM: 9

How did Cc1ccc(C)c(-n2ccnc2SCC(=O)c2c(N)n(C3CC3)c(=O)[nH]c2=O)c1 do in these assays?
gsp ag: -46%; gsp antag: 1%; D2 potentiator: 0; ClpP mod: -1.0%; TRPV1 PAM: 0

What do the screens show for `Cc1cc(=O)[nH]c(SCc2nnc(-c3ccccc3)o2)n1`?
gsp ag: 3%; gsp antag: -9%; D2 potentiator: -20; Sfp inh: 12%; ClpP mod: inconclusive; Menin-MLL FL inh: -0.6; TRPV1 PAM: -5

What do the screens show for `COc1ccc(CCNC(=O)Cc2cc(OCc3ccccc3)c(OC)cc2[N+](=O)[O-])cc1OC`?
gsp ag: -39%[inhibitor]; gsp antag: -4%[15.4 µM]; D2 potentiator: -16; Sfp inh: inconclusive; ClpP mod: -2.9%; Menin-MLL FL inh: 4.6; TRPV1 PAM: -5

Results for COc1ccc2[nH]cc(C(=O)C(=O)N3CCCCC3)c2c1 ?
gsp antag: 7%; D2 potentiator: -28; Sfp inh: 13%; ClpP mod: 1.2%; Menin-MLL FL inh: -1.5; TRPV1 PAM: 11

What do the screens show for `CCOC(=O)COn1c(=O)c(-c2ccco2)[n+]([O-])c2ccccc21`?
gsp ag: -8%; gsp antag: 2%; D2 potentiator: 1; Sfp inh: 25µM*; ClpP mod: -1.6%; Menin-MLL FL inh: inconclusive; TRPV1 PAM: 22

Overlap with the part before: 2 compounds; new compounds follow.
Results for COc1ccc2[nH]cc(C(=O)C(=O)N3CCCCC3)c2c1 ?
gsp antag: 7%; D2 potentiator: -28; Sfp inh: 13%; ClpP mod: 1.2%; Menin-MLL FL inh: -1.5; TRPV1 PAM: 11

What do the screens show for `CCOC(=O)COn1c(=O)c(-c2ccco2)[n+]([O-])c2ccccc21`?
gsp ag: -8%; gsp antag: 2%; D2 potentiator: 1; Sfp inh: 25µM*; ClpP mod: -1.6%; Menin-MLL FL inh: inconclusive; TRPV1 PAM: 22

Results for CCCN1C(=O)C(Cc2nc3ccccc3c(=O)n2-c2ccccc2)c2ccccc21 (stereo not given) ?
gsp ag: 23%; gsp antag: 24%; D2 potentiator: -3; Sfp inh: -12%; ClpP mod: -2.1%; Menin-MLL FL inh: 2.8; TRPV1 PAM: 3

What do the screens show for `COC(=O)CSC1=C(C#N)C(c2ccsc2)CC(=O)N1` (stereo not given)?
gsp ag: 0%; gsp antag: 2%; D2 potentiator: 5; Sfp inh: -30%; ClpP mod: 1.6%; Menin-MLL FL inh: 0.0; TRPV1 PAM: inconclusive

Results for CC(NC(=O)Cc1cccs1)c1ccc2c(c1)OCO2 (stereo not given) ?
gsp ag: 12%; gsp antag: -2%; D2 potentiator: 3; Sfp inh: 13%; ClpP mod: 0.7%; Menin-MLL FL inh: 4.0; TRPV1 PAM: 5

Results for O=C(CCN1C(=O)COc2ccccc21)NCCC1=CCCCC1 ?
gsp ag: 3%; gsp antag: 1%; D2 potentiator: -24; Sfp inh: 14%; ClpP mod: -1.1%; Menin-MLL FL inh: -0.4; TRPV1 PAM: 0

What do the screens show for `COc1ccc(CNC(=O)CN(Cc2ccc(F)cc2)C(=O)CCC(=O)Nc2nccs2)cc1`?
gsp ag: 2%; gsp antag: -1%; D2 potentiator: -3; Sfp inh: 7%; Menin-MLL FL inh: -1.3; TRPV1 PAM: 1

What do the screens show for `COc1ccccc1/C=N/NC(=O)CC(=O)Nc1ccc(Cl)c(Cl)c1`?
gsp ag: 16%; gsp antag: -20%; D2 potentiator: -33; Sfp inh: 7%; ClpP mod: -7.7%; Menin-MLL FL inh: 3.8; TRPV1 PAM: 13

How did CCOc1ccc(C(=O)NNC(=O)c2cc(S(=O)(=O)N3CCOCC3)ccc2Cl)cc1 do in these assays?
gsp ag: -33%; gsp antag: -1%; D2 potentiator: -5; ClpP mod: -2.0%; TRPV1 PAM: -1

Results for CCCCNC(=O)O/N=C(\N)CS(=O)(=O)C(C)(C)C ?
gsp ag: 10%[15.4 µM]; gsp antag: 6%; D2 potentiator: -7; Sfp inh: 10%; ClpP mod: -1.9%; Menin-MLL FL inh: 0.2; TRPV1 PAM: -2

What do the screens show for `O=C(OCC(=O)c1cccs1)c1cccc(C(=O)OCC(=O)c2cccs2)n1`?
gsp ag: -29%; gsp antag: 4%; D2 potentiator: -11; Sfp inh: 4%; ClpP mod: -6.8%; Menin-MLL FL inh: 3.0; TRPV1 PAM: inconclusive

How did CC(=O)Nc1ccc(S(=O)(=O)NCc2nc(-c3ccc(C)cc3)no2)cc1 do in these assays?
gsp ag: -32%[inhibitor]; gsp antag: -4%; D2 potentiator: 3; Sfp inh: 6%; ClpP mod: 0.2%; TRPV1 PAM: -8

Results for N#CCC(=O)NCC1(c2ccccc2)CCCC1 ?
gsp ag: -13%; gsp antag: 3%; D2 potentiator: 3; Sfp inh: 14%; ClpP mod: -6.8%; Menin-MLL FL inh: 0.0; TRPV1 PAM: 12

How did O=[N+]([O-])c1ccc(N2CCCC2)c([N+](=O)[O-])c1 do in these assays?
gsp ag: 40%; D2 potentiator: -1; ClpP mod: -0.5%

Results for CC(=O)c1ccc(NC(=O)COC(=O)c2ccccc2N=Nc2ccc(N(C)C)cc2)cc1 ?
gsp ag: 14%; gsp antag: -23%; D2 potentiator: -5; Sfp inh: 13%; ClpP mod: 0.4%; Menin-MLL FL inh: 5.3; TRPV1 PAM: 11

How did O=C(CN1CCN(c2ccccc2)CC1)N1CCc2ccccc21 do in these assays?
gsp ag: 16%[15.4 µM]; gsp antag: 6%; D2 potentiator: -24; Sfp inh: 14%; Menin-MLL FL inh: 11; TRPV1 PAM: 0

How did COC(=O)[C@@H]1C[C@@H](c2ccccc2)[C@H](C)C1(C)C do in these assays?
gsp ag: inconclusive; gsp antag: 6%; D2 potentiator: -9; ClpP mod: inconclusive; TRPV1 PAM: -4

What do the screens show for `O=C(C1=C(c2ccccc2)C(=O)c2ccccc2C1=O)c1ccccc1`?
gsp ag: -19%; gsp antag: -8%; D2 potentiator: -2; Sfp inh: -9%; Menin-MLL FL inh: -2.1; TRPV1 PAM: 13

How did Cc1ccc(S(=O)(=O)/C(C#N)=C/c2ccccc2OCc2ccccc2)cc1 do in these assays?
gsp ag: 20%; gsp antag: 6%; D2 potentiator: -21; Sfp inh: -5%; ClpP mod: inconclusive; Menin-MLL FL inh: 4.6; TRPV1 PAM: 0

Results for O=C(COC(=O)c1ccccc1NC(=O)c1ccco1)NCc1ccc2c(c1)OCO2 ?
gsp ag: 3%; gsp antag: -12%; D2 potentiator: -17; Sfp inh: -3%; ClpP mod: -112%; Menin-MLL FL inh: -1.3; TRPV1 PAM: -14

What do the screens show for `O=c1oc2ccc(C#CC3(O)CCCCC3)cc2cc1-n1cc(C2(O)CCCCC2)nn1`?
gsp antag: -6%; D2 potentiator: 0; ClpP mod: -27%; TRPV1 PAM: 1

How did CC(=O)Nc1ccc(NC(=O)Nc2ccccc2C)cc1 do in these assays?
gsp ag: 1%; gsp antag: 5%; D2 potentiator: -12; Sfp inh: -2%; ClpP mod: -2.4%; Menin-MLL FL inh: 0.8; TRPV1 PAM: 15

Results for COc1cc(CC(=O)NNC(=O)c2cccs2)cc(OC)c1OC ?
gsp ag: -4%; gsp antag: 12%; D2 potentiator: -4; ClpP mod: 1.6%

How did CCSc1cc(N2CCCC2)nc(-c2cccc(C)c2)n1 do in these assays?
gsp ag: -17%[15.4 µM]; gsp antag: -3%; D2 potentiator: -9; Sfp inh: -8%; ClpP mod: -2.0%; TRPV1 PAM: -23

What do the screens show for `CN1OC[C@@H]2CN[C@H](c3ccc(-c4ccc(C#N)cc4)cc3)C[C@@H]21`?
gsp ag: -52%[inhibitor]; D2 potentiator: -9; ClpP mod: -3.1%

How did CCn1c(C)nc2cc(C(=O)NNC(=S)Nc3ccc(Cl)cc3)ccc21 do in these assays?
gsp ag: 6%; gsp antag: -6%; D2 potentiator: -25; Sfp inh: -27%; ClpP mod: 34%; Menin-MLL FL inh: -0.5; TRPV1 PAM: -5

What do the screens show for `O=C1CC(c2cc(F)ccc2F)c2cc3c(cc2N1)CCC3` (stereo not given)?
gsp ag: -7%[15.4 µM]; gsp antag: 12%; D2 potentiator: -2; Sfp inh: 11%; Menin-MLL FL inh: 2.8; TRPV1 PAM: -23

What do the screens show for `CC1CCCN(C(=S)NC2CCCC2)C1` (stereo not given)?
gsp ag: 7%[15.4 µM]; gsp antag: 6%; D2 potentiator: -2; Sfp inh: 4%; Menin-MLL FL inh: -1.5; TRPV1 PAM: -9
